Screening results as filed in PubChem.
Beta2AR agonist – agonists of human beta-2 adrenergic receptor inducing internalization. P07550. Am2.2-beta2AR cells, FAP receptor internalization, flow cytometry; reference of the scale not given here. response, % (concentration not given with the values). 340,000 compounds, 0.43% hits;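 active means response above a set limit, near 3 SD of response in nonfluorescent compounds, cut at about 42% in these data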;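 further: stock transfer was 100 nL into about 11 µL; a reference agonist was the positive control; negative values mostly stem from fluorescent compounds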
Target sequence (P07550 whole entry, looked up): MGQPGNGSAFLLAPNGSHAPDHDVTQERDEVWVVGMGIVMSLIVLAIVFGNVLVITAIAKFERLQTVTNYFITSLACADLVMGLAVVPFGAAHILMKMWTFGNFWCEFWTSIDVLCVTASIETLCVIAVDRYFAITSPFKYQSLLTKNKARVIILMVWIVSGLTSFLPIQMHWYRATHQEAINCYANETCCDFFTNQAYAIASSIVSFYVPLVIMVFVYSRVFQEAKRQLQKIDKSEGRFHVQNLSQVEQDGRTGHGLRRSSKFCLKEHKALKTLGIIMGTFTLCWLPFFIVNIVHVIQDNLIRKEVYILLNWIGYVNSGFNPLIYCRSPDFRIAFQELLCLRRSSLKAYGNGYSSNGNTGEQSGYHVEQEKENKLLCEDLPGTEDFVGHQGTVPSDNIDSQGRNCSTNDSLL
Bfl-1 A1 inh – inhibitors of the anti-apoptotic protein A1, read as caspase activation; 330,000 compounds, 0.066% hits; AID 2462; caspase activation, % (no concentration beside the values); MEF A1-2A-BIM cells, Caspase-Glo 3/7 luminescence, 3 h; percent of clofoctol response, vehicle zero;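 active means over half of replicate activation scores above 10%, or exactly half above 10 with the replicate mean above 10; inconclusive means replicate mean below 10 yet half the replicates above 10; inactive means over half of replicates below 10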;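 further: wells of about 30 µL received 50 nL stock; many hits fall short of the cut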
RanGTP-Imp inh – disruptors of Ran-importin-beta complex formation – biochemical, FRET, CFP-Ran, YFP-importin-beta, homogeneous, primary screen; 300,000 compounds, 1.1% hits; AID 2216; inhibition, % (test concentration not listed); cell-free CFP-Ran/YFP-importin-beta FRET ratio;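 active means most replicates above 15%; inconclusive means exactly half above 15%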;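 further: 0% = DMSO wells and 100% = Ran loaded with GDP instead of GTP; wells of about 40 µL received 100 nL stock; the first replicate is given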
Beta apoptosis – blocks beta cell apoptosis; INS-1E cytokine-induced death, ATP luminescence, 48 h; percent of positive-control rescue, neutral wells zero; 300,000 compounds, 0.8% hits; protection from apoptosis, % (concentration not given with the values); AID 435005;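 active means all replicates at 75% or more, or half of them and the mean; inconclusive means half reach 75% but not the mean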;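 further: 0% = cytokine-treated negative control wells and 100% = positive control rescue; higher means more ATP so stronger rescue from cytokine killing; wells of about 40 µL received 100 nL stock; the first replicate is given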
T cruzi repl – T. cruzi replication inhibition; T. cruzi beta-gal in NIH3T3, luminescence, 90 h; inhibition, % (concentration not given with the values); 300,000 compounds, 1.4% hits; AID 1885;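 active means mean inhibition across valid replicates above about 55%, limit read from the data; inconclusive means mean below that limit but half or more replicates reach it; inactive means mean below it, under half of replicates reach it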;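 further: signal also drops with host cell toxicity which is not excluded here; 0% = plate median of DMSO wells and 100% = zero luminescence signal; higher percent means less beta-gal luminescence so fewer parasites; stock transfer was 50 nL into about 50 µL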
UCH37 inh – blocks the human deubiquitinase UCH37; Q9Y5K5; purified proteasome/UCH37, Ub-AMC cleavage fluorescence; 330,000 compounds, 0.33% hits; inhibition, % (concentration not given with the values); AID 588478;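 active means mean of two replicates above 20%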;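 further: 0% = compound-free wells with enzyme and 100% = wells lacking proteasome; stock transfer was 100 nL into about 20 µL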
Target sequence (Q9Y5K5 whole entry, looked up): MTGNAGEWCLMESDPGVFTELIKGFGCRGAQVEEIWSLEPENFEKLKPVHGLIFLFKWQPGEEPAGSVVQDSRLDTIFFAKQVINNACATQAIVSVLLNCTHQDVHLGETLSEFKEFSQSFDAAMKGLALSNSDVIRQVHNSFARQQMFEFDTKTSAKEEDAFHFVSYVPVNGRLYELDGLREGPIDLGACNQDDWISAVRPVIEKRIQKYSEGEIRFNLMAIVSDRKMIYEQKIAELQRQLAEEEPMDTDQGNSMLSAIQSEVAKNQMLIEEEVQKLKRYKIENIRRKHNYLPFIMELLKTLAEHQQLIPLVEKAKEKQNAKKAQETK
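Assay system: Proteasome-bound UCH37. Buffer or medium: pH 7.4 Tris-HCl (50 mM) with ovalbumin, ATP-MgCl2, DTT. Incubation: 30 min preincubation with enzyme, 25 min cleavage at room temperature. Measured by: fluorescence, ex 355 nm, em 460 nm. Read-out basis: percent inhibition. Control set: wells without proteasome as full block, compound-free enzyme plus substrate as uninhibited.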
LANA-H2A inh – blocks KSHV LANA binding to histone H2A/H2B. Q9QR71. cell-free LANA-H2A/H2B peptide, fluorescence polarization. inhibition, % (no concentration beside the values). 320,000 compounds, 0.6% hits. AID 2629; in the data active means inhibition mostly above about 10%, no sharp cut-off; inactive means mostly below about 6.7%;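 further: stock transfer was 7.5 nL into about 10 µL; 0% = median of vehicle wells and 100% = median of positive control wells; one replicate is shown; the record names a cut of 25% in any replicate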
Calb FLC – affects C. albicans growth with fluconazole. 300,000 compounds, 0.57% hits. C. albicans CaCi-2 (fluconazole-resistant clinical isolate) + fluconazole, Alamar Blue growth, 48 h. growth inhibition, % (no concentration beside the values);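 active means most replicates above 75%; inconclusive means exactly half above 75%; inactive means most below 75%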;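 further: all wells also contain fluconazole at 8 µg/ml as a sub-toxic cotreatment; 0% = median of DMSO wells and 100% = median of geldanamycin control wells; wells of about 8 µL received 7.5 nL stock; the first replicate is given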
Numbers without * were called inactive; ? = inconclusive; nt = no result given.

SMILES | Beta2AR agonist | Bfl-1 A1 inh | RanGTP-Imp inh | Beta apoptosis | T cruzi repl | UCH37 inh | LANA-H2A inh | Calb FLC
COc1ccc(S(=O)(=O)Cc2ccc(C(=O)N3CCN(c4cccc(C)c4)C(C)C3)o2)cc1 (configuration not stated) | -13 | -0.1 | 1.0 | nt | -60 | 7.0 | -4.0 | 10
CC1=C/C(=C/N(C)c2ccccc2)C(=O)S1 | -2 | ? | -1.9 | 0 | -1 | 8.8 | 0.0 | 0
O=C(Nc1cccc(S(=O)(=O)NC2=NCCC2)c1)C1CCC1 | -11 | 0.2 | 3.3 | -8 | -6 | 2.7 | 1.7 | 42
CCCc1ccc(OCc2ccc(C(=O)NN)o2)c(OC)c1 | 2 | -0.8 | 2.7 | nt | 3 | -0.1 | 5.2 | -22
Cn1c(=O)c2c(nc(N3CCNCC3)n2Cc2ccccc2Cl)n(C)c1=O | -5 | 0.9 | -4.8 | -7 | 0 | 0.2 | 3.8 | -5
CCn1cc(/C=C(\NC(=O)c2cc(OC)c(OC)c(OC)c2)C(=O)NCCCN2CCOCC2)c2ccccc21 | -2 | 0.0 | 1.2 | -5 | 5 | 7.4 | 1.8 | 11
CCN(CC)C(=O)N1CCN(C(=O)N(CC)CC)CC1 | -5 | 0.6 | 3.9 | -4 | -19 | 0.2 | 1.0 | -21
O=S(=O)(/N=C(/Sc1ccccc1)c1ccccc1)c1ccccc1 | 18 | 0.7 | 4.6 | -9 | -2 | nt | -5.3 | -2
Cc1onc(-c2c(Cl)cccc2Cl)c1COC(=O)c1ccc(Cl)cc1[N+](=O)[O-] | 2 | -0.7 | 2.1 | 2 | -6 | 2.1 | 0.5 | 29
CCC(=O)Nc1ccc2oc(-c3cccc(C)c3)nc2c1 | 2 | -0.4 | nt | 7 | nt | -58 | 5.9 | nt
Cc1ccc(NC(=O)CCNS(=O)(=O)c2ccc3[nH]c(=O)oc3c2)cc1F | 5 | 0.8 | 1.6 | -1 | -1 | 4.3 | 3.7 | -8
CCOC(=O)c1ccc(NC(=O)Nc2ccc(OC)c(OC)c2)cc1 | -62 | -0.4 | 2.5 | 2 | -9 | 4.8 | 0.6 | 4
Nc1ncnc(SCc2c(F)cccc2Cl)n1 | 2 | 0.1 | 1.0 | nt | 21 | 5.4 | 5.3 | -3
CCCS(=O)(=O)c1nc(S(=O)(=O)c2ccc(C)cc2)c(N2CCCC(C)C2)s1 (configuration not stated) | -5 | -1.1 | 1.6 | 5 | -6 | 3.1 | 3.4 | -2
CCC(=O)Nc1ccc(Cl)c(NC(=S)NC(C)=O)c1 | -5 | 0.6 | 8.5 | -2 | -7 | 2.1 | 2.6 | -13
CC(=O)c1cccc(N=c2scc(-c3ccc(S(=O)(=O)N4CCOCC4)cc3)n2CCO)c1 | 104* | -0.6 | 3.1 | 75* | -42 | 0.0 | 1.0 | ?
O=C(O)/C(=C\c1ccc(F)cc1)c1ccc(-c2ccccc2)cc1 | -3 | 0.5 | -2.8 | nt | -7 | -2.6 | 3.0 | 41
CCn1ccnc1[C@@H]1C[C@H]2CN(c3ccccc3OC)C(=O)[C@]23CCCN13 | -3 | 1.0 | 3.6 | -8 | -1 | 1.4 | -0.4 | -8
O=C(c1cc(-c2cccc(Br)c2)nc2ccccc12)N1CCCC1 | 3 | -0.9 | 4.5 | -3 | 8 | 2.1 | 6.6 | 1
Cc1ccc2c(c1)CCCN2C(=O)c1cc(C)on1 | 5 | 0.3 | -2.4 | 2 | 0 | 0.3 | 1.4 | 6
O=C(NCC1CCCO1)C1CCC(N2C(=O)c3ccccc3C2=O)CC1 (configuration not stated) | 7 | 0.9 | -2.7 | -2 | -1 | 0.9 | -3.7 | -7
COC(=O)c1ccc(CS(=O)(=O)c2ccc(C)cc2)cc1 | 6 | -0.4 | 0.6 | -7 | 6 | 1.2 | -8.6 | ?
O=C(NCCC(=O)N1CCCCCCC1)c1ccc(Cl)cc1 | -6 | -0.5 | -3.3 | 1 | 0 | -0.9 | 1.3 | -7
NC(=O)c1nsc(C(=O)N(c2ccccc2)C(C(=O)NCc2ccc(F)cc2)c2ccc(O)cc2)c1N (configuration not stated) | 17 | -1.5 | 3.2 | 5 | -11 | -21 | 8.8 | 15
CC1(C)CC(C)(c2ccc(O)cc2O)N(c2cccc(Cl)c2)C(=S)N1 (configuration not stated) | 12 | 1.3 | 1.6 | -1 | -7 | 4.7 | 2.4 | 2
COC(=O)c1cc(-c2cccc([N+](=O)[O-])c2)c2c(=O)n(C)c(=O)n(C)c2n1 | -7 | -0.2 | 3.8 | 1 | 0 | 5.7 | 18 | 0
CCN(Cc1ccc2c(c1)OCCO2)C(=O)CN1C(=O)NC2(CCc3ccccc32)C1=O (configuration not stated) | -8 | 1.3 | nt | 0 | nt | 2.3 | 0.7 | nt
O=C(CN1C(=O)NC2(CCCCCCC2)C1=O)Nc1ccc(OC(F)F)cc1 | 8 | -1.5 | nt | -3 | nt | 0.1 | -1.0 | nt
Cc1ccc(C(=O)NCCCc2ccccc2)c(Cl)c1 | 3 | 0.1 | 5.9 | -3 | 5 | 2.8 | 0.0 | 0
CCOc1cc(N2CCOCC2)c(OCC)cc1NC(=O)COC(=O)c1cccc2ccccc12 | -3 | 0.4 | -1.3 | -15 | 11 | 0.3 | -6.2 | 7
C/C(=N\NC(=O)c1ccc2ccccc2c1)c1cccnc1 | -13 | 0.8 | 2.9 | 6 | -11 | nt | -1.8 | -3
CCS(=O)(=O)N1CCC(N2CCC(C)CC2)CC1 | 2 | 0.7 | -4.6 | -2 | -8 | 2.6 | -3.5 | 3
Cc1[nH]c2ccccc2c1C(=O)C(C)Sc1nnc(C2CC2)o1 (configuration not stated) | -4 | 0.4 | nt | 1 | nt | 3.8 | -1.6 | nt
Cc1cccc(OCCNc2cc(N3CCN(C)CC3)ccc2[N+](=O)[O-])c1 | 8 | -0.1 | -0.5 | 2 | 67* | 7.1 | 0.7 | -1
Cc1ccc(C(=O)N2CC(C)CC(C)C2)cc1NC1=NC2CS(=O)(=O)CC2S1 (configuration not stated) | 25 | 0.6 | -2.3 | 2 | -3 | 2.5 | 1.8 | 6
Nc1nc(-c2cc(O)ccc2[N+](=O)[O-])cc(-c2ccccc2)c1[N+](=O)[O-] | 23 | -1.4 | 34* | 63 | -3 | nt | -3.7 | -1
Cc1ccc2c(Cl)cc(Cl)c(OCC(=O)N(C(C)C)C(C)C)c2n1 | 4 | -0.4 | -4.7 | 5 | 12 | 0.2 | -3.9 | -8
COc1ccc(-c2nc(CS(=O)(=O)CC(=O)NCCc3ccccc3)c(C)o2)cc1 | -7 | 0.4 | -0.8 | -7 | 4 | -2.7 | -1.7 | -11
O=C(CCC(=O)N1CCOc2ccccc21)Nc1ccc(F)cc1F | -2 | 0.3 | -2.8 | -9 | -7 | -0.3 | 5.3 | -12
CCOC(=O)N1CCC(NC(=O)CCc2nc(-c3ccccc3F)no2)CC1 | 3 | -0.3 | nt | -3 | nt | 2.3 | 14 | -2
CCOC(=O)c1sc(NC(=O)CSc2nnc(C)s2)c(C(=O)OCC)c1C | -5 | 1.1 | nt | 7 | 32 | 3.8 | 4.6 | -2
O=C1/C(=C\c2ccccc2Cl)SC(=S)N1CCC(=O)N1CCCc2ccccc21 | -4 | 0.9 | 0.8 | 25 | 15 | 9.2 | -3.4 | 0
CN(CC(=O)Nc1cccc(F)c1)C(=O)CCc1nc2cc(S(=O)(=O)N3CCOCC3)ccc2n1C | 1 | 1.2 | 1.6 | nt | -1 | -0.4 | 2.3 | -3
Cc1cc([N+](=O)[O-])ccc1NC(=O)CSc1nncn1-c1cccnc1 | -11 | ? | 2.9 | -3 | -9 | 0.4 | -0.7 | 6
CN(C(=O)CSc1nnc(Nc2ccccc2F)s1)C1CCS(=O)(=O)C1 (configuration not stated) | -9 | 0.5 | nt | -1 | nt | -1.7 | 1.3 | nt
CC(C)CCNC(=O)C(c1ccco1)N(Cc1ccccc1)C(=O)c1snc(C(N)=O)c1N (configuration not stated) | 19 | -0.2 | 30* | nt | 14 | -37 | 2.0 | 11
Cc1c(C=O)c2ccccc2n1CC(=O)N1CCc2ccccc2C1 | 1 | -0.2 | -0.3 | -1 | 3 | 2.1 | 0.1 | 1
Cc1ccccc1C(=O)NNC(=O)C1CCCN(c2ncccn2)C1 (configuration not stated) | -2 | 0.8 | -2.0 | nt | -27 | 1.0 | 4.8 | 4
O=[N+]([O-])c1cc(Cl)ccc1Nc1ccccc1 | -11 | -0.2 | -5.0 | -5 | -4 | 3.6 | 3.4 | -18
O=C(C1CC1)N1CCN=C1SCc1ccc(F)cc1 | -27 | -0.4 | -1.8 | -1 | -3 | 2.6 | 2.5 | -7
Cc1nnc(N2C(=O)c3oc4ccccc4c(=O)c3C2c2ccco2)s1 (configuration not stated) | -14 | 0.6 | -3.2 | -1 | -10 | 1.5 | -2.3 | 11
Cc1nnc(NC(=O)Cn2c(=O)sc3ccccc32)s1 | -4 | -0.3 | -1.1 | -2 | -4 | 3.9 | -1.0 | -2
O=C(Cn1nnc(-c2ccccc2)n1)NNC(=O)c1cccc([N+](=O)[O-])c1 | 12 | -0.5 | 6.2 | -2 | 2 | 2.7 | -6.5 | 2
Cn1c(SCC(N)=O)nnc1C1CCN(S(=O)(=O)c2ccccc2C(F)(F)F)CC1 | -7 | 0.8 | -1.4 | -6 | 1 | 3.2 | -4.3 | -13
O=C(N/N=C/c1ccccn1)c1[nH]c2ccc([N+](=O)[O-])cc2c1-c1ccccc1 | 1 | 0.3 | 0.7 | 13 | 16 | nt | -1.0 | 10
COc1cc(/C=C/c2cccc[n+]2C)ccc1OCC(=O)Nc1ccccc1 | -4 | -0.5 | 3.5 | 7 | -1 | -13 | -1.6 | -20
O=C(NCCCn1ccnc1)c1ccc(N2CCCCC2)c([N+](=O)[O-])c1 | -3 | 0.2 | ? | 10 | 12 | 3.8 | 3.7 | -2
Nn1c(SCc2ccccc2)nc2ccccc21 | -19 | -8.3 | 0.5 | nt | -3 | 2.9 | -3.6 | 8
Cc1cc(C(=O)O)ccc1-n1c(C)cc(C=C2C(=O)c3ccccc3C2=O)c1C | -4 | 0.2 | 0.1 | 8 | 3 | 15 | -2.0 | 3
Cc1cc(C)c2nc(N3CCC(C(=O)NCCCN4CCCCC4)CC3)sc2c1 | 22 | 1.1 | 1.7 | 7 | 15 | 1.0 | 2.7 | 42
Next structures.
SMILES | Beta2AR agonist | Bfl-1 A1 inh | RanGTP-Imp inh | Beta apoptosis | T cruzi repl | UCH37 inh | LANA-H2A inh | Calb FLC
CC1=C(C)CC2(SC1)C(=O)N(c1ccccc1)N=C2N (configuration not stated) | 1 | -0.8 | 2.4 | 7 | -7 | 5.3 | -0.1 | 1
C/C=C/c1ccc(OCCCCn2cncn2)c(OC)c1 | 2 | -0.2 | nt | 0 | nt | 0.3 | -3.9 | nt
Cc1cccc(C)c1NC(=O)C(c1ccc([N+](=O)[O-])cc1)N(C)C(=O)c1ccccn1 (configuration not stated) | -10 | 0.9 | 3.0 | 9 | -13 | -3.0 | -2.1 | 12
Cc1ccc(-c2csc(N3CCC[C@@H]3C(=O)NCCn3c(-c4ccncc4)nc4ccccc43)n2)cc1 | 13 | 0.3 | -0.3 | 6 | 41 | 4.2 | 5.8 | 12
